Bioassay records as filed in PubChem BioAssay.
Beta cell apopt: blocks beta cell apoptosis | 300,000 compounds, 0.8% hits | protection from apoptosis, % (no concentration beside the values) | AID 435005 | INS-1E cytokine-induced death, ATP luminescence, 48 h; percent of positive-control rescue, neutral wells zero;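 active means all replicates at 75% or more, or half of them and the mean; inconclusive means half reach 75% but not the mean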;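 further: 0% = cytokine-treated negative control wells and 100% = positive control rescue; higher means more ATP so stronger rescue from cytokine killing; wells of about 40 µL received 100 nL stock; the first replicate is given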
Calb FLC: C. albicans growth modulation with fluconazole. 300,000 compounds, 0.57% hits. growth inhibition, % (no concentration beside the values). C. albicans CaCi-2 (fluconazole-resistant clinical isolate) + fluconazole, Alamar Blue growth, 48 h;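 active means most replicates above 75%; inconclusive means exactly half above 75%; inactive means most below 75%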;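 further: all wells also contain fluconazole at 8 µg/ml as a sub-toxic cotreatment; 0% = median of DMSO wells and 100% = median of geldanamycin control wells; wells of about 8 µL received 7.5 nL stock; the first replicate is given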
T cruzi inh: blocks replication of Trypanosoma cruzi; T. cruzi beta-gal in NIH3T3, luminescence, 90 h; inhibition, % (test concentration not listed); AID 1885; 300,000 compounds, 1.4% hits;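 active means mean inhibition across valid replicates above about 55%, limit read from the data; inconclusive means mean below that limit but half or more replicates reach it; inactive means mean below it, under half of replicates reach it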;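 further: signal also drops with host cell toxicity which is not excluded here; 0% = plate median of DMSO wells and 100% = zero luminescence signal; higher percent means less beta-gal luminescence so fewer parasites; stock transfer was 50 nL into about 50 µL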
RanGTP-Imp inh: inhibitors of RanGTP-importin-beta interaction, primary screen, biochemical, FRET, CFP-Ran, YFP-importin-beta, homogeneous. cell-free CFP-Ran/YFP-importin-beta FRET ratio. inhibition, % (concentration not given with the values). 300,000 compounds, 1.1% hits. AID 2216;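 active means most replicates above 15%; inconclusive means exactly half above 15%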;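 further: 0% = DMSO wells and 100% = Ran loaded with GDP instead of GTP; wells of about 40 µL received 100 nL stock; the first replicate is given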
Ecoli rRNA inh: inhibitors of bacterial rRNA selective over humanized ribosomes; AID 720706; E. coli WT GFP vs humanized-ribosome RFP mutants, fluorescence, 24 h; stronger effect = lower value; DMSO median 0, no signal -100; GFP signal change (wild-type ribosome), % (concentration not given with the values); 350,000 compounds, 1.6% hits;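 active means significant combined selectivity score with lowered wild-type GFP, culture density cut under 30%, mutant RFP and density less affected; inactive means any of these conditions unmet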; further: one replicate is shown; some compounds called inactive have numbers as strong as hits
MLL AF4-AF9 inh: inhibitors of human MLL-AF4/AF9 interaction; inhibition, % at 10 µM; P42568; AlphaScreen, biotin-AF4 peptide binding to FLAG-AF9; 350,000 compounds, 0.47% hits;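 active means every replicate reaching a set inhibition limit, whatever the replicate mean, cut at about 25% in these data; inconclusive means mean inhibition reaches that limit but some replicates miss it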;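 further: 0% = plate neutral control median and 100% = total signal loss; the record names both 10 and 1 µM as test concentration; the first replicate is given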
Target sequence (P42568 whole entry, looked up): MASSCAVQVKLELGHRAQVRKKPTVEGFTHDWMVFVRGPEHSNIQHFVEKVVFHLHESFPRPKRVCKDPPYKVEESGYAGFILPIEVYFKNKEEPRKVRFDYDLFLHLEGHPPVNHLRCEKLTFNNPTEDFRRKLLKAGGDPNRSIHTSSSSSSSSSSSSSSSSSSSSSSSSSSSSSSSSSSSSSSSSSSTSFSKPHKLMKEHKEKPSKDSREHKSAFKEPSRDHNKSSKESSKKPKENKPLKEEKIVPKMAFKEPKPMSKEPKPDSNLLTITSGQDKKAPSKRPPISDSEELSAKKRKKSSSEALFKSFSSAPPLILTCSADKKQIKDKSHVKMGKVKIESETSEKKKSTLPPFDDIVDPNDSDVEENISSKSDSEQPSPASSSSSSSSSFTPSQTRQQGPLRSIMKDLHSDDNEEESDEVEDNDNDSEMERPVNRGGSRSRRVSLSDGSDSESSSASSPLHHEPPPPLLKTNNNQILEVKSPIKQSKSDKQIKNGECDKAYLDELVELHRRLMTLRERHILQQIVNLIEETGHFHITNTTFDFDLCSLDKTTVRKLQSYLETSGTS
Vif A3G: HIV-1 Vif–A3G interaction blockers – biochemical, TR-FRET, GST-Vif 1-94, biotin-A3G peptide, dose response retest, primary screen (AID 1117319); 260,000 compounds, 0.57% hits; one-dose inhibition, %; IC50 in µM for titrated hits; TR-FRET GST-Vif / biotin-A3G peptide binding; higher % means a stronger effect; test concentration not given here; strong numbers were not always called active;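 active means above the screen mean plus three standard deviations and confirmed in dose response; inconclusive means results disagree or hit not tested in dose response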;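 further: Vif residues 1-94 fused to GST binding biotinylated APOBEC3G peptide 110-148; 0% = full assay without inhibitor and 100% = GST in place of GST-Vif; retest series ran down from 100 µM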
A1 inh: inhibitors of the anti-apoptotic protein A1, read as caspase activation; MEF A1-2A-BIM cells, Caspase-Glo 3/7 luminescence, 3 h; percent of clofoctol response, vehicle zero; caspase activation, % (no concentration beside the values); 330,000 compounds, 0.066% hits; AID 2462;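 active means over half of replicate activation scores above 10%, or exactly half above 10 with the replicate mean above 10; inconclusive means replicate mean below 10 yet half the replicates above 10; inactive means over half of replicates below 10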;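 further: wells of about 30 µL received 50 nL stock; many hits fall short of the cut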
Ecoli rRNA inh OD600: second read-out of Ecoli rRNA inh, no call of its own (marks repeat the call); OD600 change, %; measured here: OD600 growth;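 optical density of the mix in the first replicate; 0 = DMSO median and -100 = no signal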
Ecoli rRNA inh RFP: recorded beside Ecoli rRNA inh, whose call it bears; RFP signal change, %; measured here: RFP humanized mutant strains;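 first replicate; 0 = DMSO median and -100 = no signal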
Starred values were filed as active, the others as inactive; ? = inconclusive; / = no result given; & = joins results of further samples.

Each structure is followed by: Beta cell apopt, Calb FLC, T cruzi inh, RanGTP-Imp inh, Ecoli rRNA inh, Ecoli rRNA inh OD600, Ecoli rRNA inh RFP, MLL AF4-AF9 inh, Vif A3G, A1 inh
1) COc1ccc(CNC(=O)Cc2ccc(-c3ccccc3)cc2)cc1OC
→ /, -11, -2, -3.9, -10, -10, 2.7, 2.3, /, -0.4
2) O=C(COC(=O)c1ccc(F)cc1)Nc1cc(S(=O)(=O)N2CCOCC2)ccc1N1CCCC1
→ -20, 9, -5, -2.5, -15, -11, -0.3, 0.5, 8%, -1.3
3) CC1(CCc2ccccc2)NC(=S)N(c2ccc(Cl)cc2)N1 (stereo unspecified)
→ -2, 1, 18, -1.8, /, /, /, /, -5%, 1.0
4) O=C(O)c1ccccc1COc1ccccc1Cl
→ 1, 1, -2, ?, -11, -6, 2.8, 3.7, 2%, -1.1
5) COc1cc(C2NC(=O)CCC2[N+](=O)[O-])cc(Br)c1OC (stereo unspecified)
→ -5, -2, -5, -3.4, 5, 10, 1.9, -2.0, -7%, 0.2
6) Cc1cccc(-n2c(-c3csc(C(C)C)c3)n[nH]c2=S)c1
→ /, 0, 22, 4.2, /, /, /, /, 16%, /
7) COc1ccc2c(CC(=O)NC3CCCc4ccccc43)coc2c1 (stereo unspecified)
→ -7, 2, -17, ?, /, /, /, /, 2%, 0.7
8) CCOC(=O)c1c(NC(=O)c2cccs2)sc2c1CCN(C(=O)OCC)C2
→ 14, -7, 41, -3.4, /, /, /, /, 5%, 0.1
9) COc1ccc(CNCC(O)COc2ccc(C)cc2[N+](=O)[O-])cc1 (stereo unspecified)
→ -1, -29, 22, 0.1, -2, 3, 2.5, -11, /, 0.9
10) Cc1cc(/C=N\NC(=O)CC(=O)NC2CCCCC2)c(C)n1-c1cccc(Cl)c1Cl
→ -4, -7, 4, 4.7, /, /, /, /, /, -0.2
11) Cc1ccc(-c2nc(CS(=O)CC(=O)NCc3ccco3)c(C)o2)cc1 (stereo unspecified)
→ -8, 0, -8, ?, -3, -4, 0.4, 2.2, /, 0.1
12) Cc1ccc(S(=O)(=O)NCC(=O)NCC(=O)OC(C(=O)NC(N)=O)C(C)C)cc1C (stereo unspecified)
→ 1, 7, -1, -2.7, 14, 11, 1.8, -0.6, -9%, -0.7
13) CN(C)Cc1c(O)ccc2oc(Cc3ccccc3)cc12
→ 14, 7, -2, -1.3, /, /, /, /, 5%, 0.3
14) CC1=CCC2C(=O)N(c3ccccc3OC(=O)c3ccccc3F)C(=O)C2C1 (stereo unspecified)
→ 0, 15, -24, -3.1, -3, -2, -1.8, -1.6, 2%, -0.5
15) NC(=O)C1CC(=O)N(c2ccc(OCc3ccccc3Cl)cc2)C1 (stereo unspecified)
→ -6, 10, -15, 4.5, 0, -10, -1.0, -1.1, 1%, -0.6
16) CCOc1ccc(N(C)S(=O)(=O)c2ccc(-c3cc(C)no3)s2)cc1
→ 15, 4, 0, 0.1, 1, -43, -8.6, 0.9, 1%, 1.2
17) CCCCCC(=O)OC(CN1CCCCC1)CN1CCCC1=O (stereo unspecified)
→ -2, 1, 0, -1.7, /, /, /, /, 1%, 0.1
18) CCOC(=O)Nc1cc(C)c(Cl)cc1OC
→ 21, -12, -7, -0.5, /, /, /, /, 77%, 0.4
19) O=C(COc1ccccc1-c1ccccc1)Nc1ccc(S(=O)(=O)NCc2ccco2)cc1
→ 5, -2, 7, 6.6, /, /, /, /, 4%, 1.2
20) COc1ccc(CCN(C)C(=O)c2ccc(C)c(S(=O)(=O)N3CCCCC3)c2)cc1OC
→ -12, /, /, /, -5, -5, 2.0, 0.2, -4%, -2.3

(cont.)
| No. | Compound | Beta cell apopt | Calb FLC | T cruzi inh | RanGTP-Imp inh | Ecoli rRNA inh | Ecoli rRNA inh OD600 | Ecoli rRNA inh RFP | MLL AF4-AF9 inh | Vif A3G | A1 inh |
| --- | --- | --- | --- | --- | --- | --- | --- | --- | --- | --- | --- |
| 21 | Cc1csc(NC(=O)C2CCCCN2S(=O)(=O)c2ccccc2)n1 (stereo unspecified) | 1 | -2 | -1 | 4.3 | 2 | -4 | 3.3 | -2.0 | 2% | -0.2 |
| 22 | COc1ccc(S(=O)(=O)/C(C#N)=C/Nc2ccccc2F)cc1 | -9 | 2 | -7 | -3.0 | -5 | 2 | 1.6 | 3.7 | / | 0.1 |
| 23 | CCOCCCn1c(=NC(=O)c2cccs2)c(C#N)cc2c(=O)n3ccccc3nc21 | -7 | 4 | -2 | 105* | 14 | -1 | 3.2 | -1.3 | / | 0.0 |
| 24 | CSc1ccc(CN(C)CC(=O)NC(C)c2ccccc2)cc1 (stereo unspecified) | 1 | 6 | 22 | 3.7 | -31* | -10* | -5.6* | -0.3 | / | -0.3 |
| 25 | O=C(COc1cccc2ccccc12)Nc1cc(S(=O)(=O)N2CCOCC2)ccc1N1CCOCC1 | 11 | 15 | 3 | 6.8 | / | / | / | / | -8% | 1.0 |
| 26 | CCCn1c(SCC(=O)Nc2ccccc2C(=O)OC)nc2c1c(=O)n(C)c(=O)n2C | 3 | 15 | -15 | 3.1 | / | / | / | / | -1% | -0.1 |
| 27 | Cn1c(CNc2nc(-c3ccccc3)cs2)nnc1SCC(=O)N1CCc2ccccc21 | -9 | 21 | 28 | 0.8 | / | / | / | / | 20%&-2% | 0.0 |
| 28 | CCCSc1nc(C)cc(C)c1S(C)(=O)=O | -7 | 0 | -11 | -3.5 | -27 | -26 | -4.9 | -0.5 | -4% | -0.3 |
| 29 | Cc1ccc(-c2nnn(CC(=O)N(Cc3ccco3)C(C(=O)NC(C)(C)C)c3cccs3)n2)o1 (stereo unspecified) | -7 | -4 | -2 | 0.5 | / | / | / | / | 33%&1% | / |
| 30 | COc1cc(/C=N/N=C(\N)c2nonc2N)ccc1O | -4 | 10 | -16 | 1.5 | -10 | 3 | -2.3 | 3.7 | / | -0.2 |
| 31 | O=C(c1ccccc1)N1CCn2c(nc3ccccc32)C1 | -4 | 20 | -14 | -2.7 | / | / | / | / | 7% | 0.0 |
| 32 | COc1ccc(S(=O)(=O)N2N=C(C)Oc3ccccc3C2=O)cc1 | 3 | 3 | -69 | -2.5 | / | / | / | / | 5% | 1.3 |
| 33 | O=C(NCC1COc2ccccc2O1)c1ccc(Br)s1 (stereo unspecified) | 6 | 5 | 10 | 0.0 | 11 | -25 | 1.9 | 1.2 | 20% | 0.2 |
| 34 | Cc1cc(C)n(CCC(=O)N/N=C/c2cccc([N+](=O)[O-])c2)n1 | 4 | -7 | -7 | -0.1 | -1 | 3 | -0.9 | 2.9 | -5% | 0.2 |
| 35 | COc1ccccc1-c1cc(C(=O)NCCCN2CCOCC2)no1 | -6 | 12 | -6 | 2.0 | 1 | -1 | 0.0 | -12 | / | 0.8 |
| 36 | O=C(C1CCCO1)N1CCN(C(=S)NC2CC2)CC1 (stereo unspecified) | -4 | -6 | -1 | 0.3 | 16 | 7 | 0.3 | -2.6 | -5% | -0.8 |

Whole records from above.
`COc1ccc(S(=O)(=O)N2N=C(C)Oc3ccccc3C2=O)cc1` as listed: Beta cell apopt = 3; Calb FLC = 3; T cruzi inh = -69; RanGTP-Imp inh = -2.5; Ecoli rRNA inh = /; Ecoli rRNA inh OD600 = /; Ecoli rRNA inh RFP = /; MLL AF4-AF9 inh = /; Vif A3G = 5%; A1 inh = 1.3
`Cc1ccc(-c2nnn(CC(=O)N(Cc3ccco3)C(C(=O)NC(C)(C)C)c3cccs3)n2)o1` (stereo unspecified) as listed: Beta cell apopt = -7; Calb FLC = -4; T cruzi inh = -2; RanGTP-Imp inh = 0.5; Ecoli rRNA inh = /; Ecoli rRNA inh OD600 = /; Ecoli rRNA inh RFP = /; MLL AF4-AF9 inh = /; Vif A3G = 33%&1%; A1 inh = /
`O=C(NCC1COc2ccccc2O1)c1ccc(Br)s1` (stereo unspecified) as listed: Beta cell apopt = 6; Calb FLC = 5; T cruzi inh = 10; RanGTP-Imp inh = 0.0; Ecoli rRNA inh = 11; Ecoli rRNA inh OD600 = -25; Ecoli rRNA inh RFP = 1.9; MLL AF4-AF9 inh = 1.2; Vif A3G = 20%; A1 inh = 0.2

More results
| No. | Compound | Beta cell apopt | Calb FLC | T cruzi inh | RanGTP-Imp inh | Ecoli rRNA inh | Ecoli rRNA inh OD600 | Ecoli rRNA inh RFP | MLL AF4-AF9 inh | Vif A3G | A1 inh |
| --- | --- | --- | --- | --- | --- | --- | --- | --- | --- | --- | --- |
| 37 | O=C(O)c1cccc(COc2cccc3ccccc23)c1 | / | -1 | -14 | 0.3 | / | / | / | 2.3 | / | -7.5 |
| 38 | COc1ccc(-c2noc(Cc3ccccc3OC)n2)cc1 | 1 | 0 | -3 | -4.9 | / | / | / | / | 13% | -0.1 |
| 39 | CN(C)CCNC(=O)c1scc2c1CCCC2 | 1 | -12 | 15 | -4.4 | 7 | 5 | -5.2 | -6.1 | -12% | 0.3 |
| 40 | CCCCn1nc(NS(=O)(=O)c2cccc3nonc23)c2cc3cccc(C)c3nc21 | -2 | 1 | -7 | 2.3 | 1 | 8 | -0.6 | 3.4 | 21% | -0.4 |
| 41 | Cc1ccc(C(C(=O)NC2CCCCC2)N(C(=O)c2csnn2)C2CC2)o1 (stereo unspecified) | -3 | 20 | -6 | 0.6 | / | / | / | / | -1% | -0.2 |
| 42 | Cc1ccc(C)c(Nc2nc3c(S(=O)(=O)c4ccccc4)nnn3c3ccccc23)c1 | 12 | 3 | 6 | 3.6 | 18 | 14 | -6.0 | -1.4 | 4% | 0.1 |
| 43 | Cc1cc(C)cc(C(=O)NCCCN2CCOCC2)c1 | -5 | 5 | 11 | 2.6 | 10 | 8 | -1.8 | -5.5 | / | 0.5 |
| 44 | CN(C)NC(=S)NC1CCS(=O)(=O)C1 (stereo unspecified) | -5 | 0 | -10 | 2.2 | -5 | -8 | 3.2 | / | 80% | 1.3 |
| 45 | N#C/C(=C/N1CCOCC1)c1ccccc1 | 9 | -3 | 3 | 6.1 | / | / | / | / | -1% | -0.2 |
| 46 | COCCn1nnnc1C(c1ccc2ncccc2c1)N1CCN(c2ccccc2F)CC1 (stereo unspecified) | -4 | -4 | 15 | 2.4 | / | / | / | / | 19%&0% | -0.3 |
| 47 | Cc1cccc(NC(=O)c2cc3ccccc3oc2=O)c1 | -6 | -2 | -11 | -1.0 | 3 | 2 | -3.0 | -16 | 0% | -7.3 |

Some of the compounds tested (hit frequency here may not be typical).
